Rango release inh: inhibitors of RanGTP-induced Rango-importin beta complex dissociation | Potency, µM (highest dose often 46.1 µM), for inactives: at the top dose activity change, negative = inhibition | Biochemical FRET Rango-importin beta, RanGTP-induced dissociation | hit rate 0.071% among 340,000 | O95149+P62826; active means falling FRET ratio curve, often poorly fitted, with flat reads before Ran was added; inconclusive means other falling curves, or compound fluorescence or quenching; inactive means flat or rising ratio curve;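 note: potency is the fitted concentration of half-maximal effect; % of control where 0% means no effect; nearly all actives have a fitted effect of over 45% in size; -100% = wells without RanGTP and RCC1; the record marks most hits as doubtful in a second field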
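Compounds preincubate 5 min with complex of recombinant Rango and importin beta in PBS with 1 mM DTT. Ran (0.6 uM) loaded with 2 mM GTP plus 0.2 uM RCC1 starts dissociation; FRET is recorded 45 min later.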
GLA inh pH 4.5: inhibitors of human alpha-galactosidase A at pH 4.5. activity change, negative = inhibition, % at 105 µM. purified enzyme, 4-MU-alpha-Gal fluorescence, pH 4.5. 230,000 tested, under 10 active; inconclusive = small, poorly fitted or top-dose-only inhibition, or a rising curve; inactive = flat fitted curve, though single readings scatter; no compound was filed as active;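 note: 0% = full activity with enzyme and -100% = basal without enzyme; dose as in the result columns while the protocol names 77 µM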
Target sequence (P06280 whole entry, looked up): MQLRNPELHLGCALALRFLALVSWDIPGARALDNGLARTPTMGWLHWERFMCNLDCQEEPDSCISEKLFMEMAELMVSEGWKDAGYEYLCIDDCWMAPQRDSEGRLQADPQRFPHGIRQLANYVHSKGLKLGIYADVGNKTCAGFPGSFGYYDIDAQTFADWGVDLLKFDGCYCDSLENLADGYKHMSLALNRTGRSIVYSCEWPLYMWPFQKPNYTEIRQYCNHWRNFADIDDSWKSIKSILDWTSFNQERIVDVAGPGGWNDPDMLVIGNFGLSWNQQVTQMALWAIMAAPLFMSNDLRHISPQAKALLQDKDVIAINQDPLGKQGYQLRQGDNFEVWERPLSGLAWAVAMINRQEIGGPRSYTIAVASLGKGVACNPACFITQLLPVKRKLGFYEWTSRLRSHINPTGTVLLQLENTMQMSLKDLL
miR-21 reporter: miR-21 reporter, rising signal. HeLa miR-21 FLuc reporter, luciferase, 48 h. Potency, µM (top dose mostly 38.3 µM), for the others: at the top dose reporter change, positive = more light. 340,000 tested, under 10 active. AID 2288; active = well fitted rising curve with a large enough effect; inconclusive = small, poorly fitted or top-dose-only effect; inactive = no such curve, though single readings can be large or run the other way;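 note: % of control where 0% means no effect; miR-21 action dims this reporter so a rising signal means less miR-21 action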
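HeLa miR-21-FLuc reporter line, endogenous miR-21; 2000 cells/well in DMEM/10% FBS; compound titration up to ~40uM final, 48 h, 37 degree Celsius; luciferase detection reagent, 15 min lysis, CCD luminescence.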
Rango complex inh: Rango-importin beta binding inhibition; Rango CFP/YFP FRET sensor + importin beta, 45 min; hit rate 0.031% among 340,000; Potency, µM (titrated, usually from 92.2 µM), for inactives: top-dose inhibition of complex formation; Q14974; active = rising FRET ratio curve, often small or poorly fitted; inconclusive = mostly compound fluorescence or quenching in the first reads; inactive = flat curves in all reads;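 note: potency is the fitted concentration of half-maximal effect; 0% = DMSO wells and 100% = buffer wells lacking importin beta; nearly all actives have a fitted effect of over 15% in size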
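Inhibition scored from the CFP 486 nm/YFP 530 nm FRET ratio 45 min after adding 0.125 microM importin beta to 50 nM Rango biosensor preincubated 5 min with compound (room temperature, PBS with DTT, Tween-20, BSA). No-importin wells as positive control.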
* hit, by the source's call.

Results for Cc1c(C)n(Cc2ccccc2)c2ncnc(NN)c12 ?
Rango release inh: 11%; miR-21 reporter: -15%; Rango complex inh: -2.7%

Results for O=C(CN1CCCC1)Nc1cccc(Cl)c1Cl ?
Rango release inh: -6%; miR-21 reporter: -6%; Rango complex inh: 4.6%

Results for O=C(NC1=NCCS1)C12CC3CC(CC(C3)C1)C2 ?
Rango release inh: inconclusive; GLA inh pH 4.5: -1; miR-21 reporter: -3%; Rango complex inh: 3.5%

Results for COc1ccc(OCc2nnc3n2N=C(c2ccc(Br)cc2)CS3)cc1 ?
Rango release inh: -8%; GLA inh pH 4.5: -2; miR-21 reporter: -4%; Rango complex inh: 5.7%

Results for CCNC(=S)N/N=C(\C)c1cccc(C(F)(F)F)c1 ?
Rango release inh: -8%; GLA inh pH 4.5: 2; miR-21 reporter: -14%; Rango complex inh: 0.1%

Results for CCCc1nc(SCC(=O)Nc2cc(C)on2)c2ccccc2n1 ?
Rango release inh: 0%; GLA inh pH 4.5: -3; miR-21 reporter: 14%; Rango complex inh: 1.1%

Results for O=C(CNC(=O)c1cccs1)N=Nc1c(O)[nH]c2ccc([N+](=O)[O-])cc12 ?
Rango release inh: 2%; miR-21 reporter: -4%; Rango complex inh: 0.3%

Results for O=C(Cn1ncc2c3ccccc3n(Cc3ccccc3)c2c1=O)NCCCN1CCOCC1 ?
Rango release inh: -2%; miR-21 reporter: 1%; Rango complex inh: -0.5%

What do the screens show for `O=C(CSc1oc(-c2cccs2)nc1S(=O)(=O)c1ccc(F)cc1)NCC1CCCO1` (centres undefined)?
Rango release inh: -16%; GLA inh pH 4.5: 0; miR-21 reporter: 0%; Rango complex inh: 0.1%

Results for CN(CC(=O)Nc1cccc(F)c1)C(=O)c1ccc2c(c1)S(=O)(=O)N=C1CCCCCN12 ?
Rango release inh: 1%; Rango complex inh: -2.0%

What do the screens show for `CCCCC[C@H](O)/C=C/[C@H]1CCC(=O)[C@@H]1CCCCCCC(=O)N1CCCCC1CO` (some centres undefined)?
Rango release inh: -3%; miR-21 reporter: 26%; Rango complex inh: -0.3%

How did CCOC(=O)[C@H]1[C@H]2COc3ccc(Br)cc3[C@H]2N2C(=O)CN(CCc3c[nH]c4ccccc34)C(=O)[C@@]12C do in these assays?
Rango release inh: -1%; Rango complex inh: 0.0%

Results for COc1ccc(CC(=O)NNS(=O)(=O)c2ccccc2[N+](=O)[O-])cc1OC ?
Rango release inh: -7%; miR-21 reporter: 9%; Rango complex inh: -1.1%

Results for N/C(CCS(=O)(=O)c1ccc(Cl)cc1)=N\OC(=O)c1ccccc1Cl ?
Rango release inh: 24%; GLA inh pH 4.5: 1; miR-21 reporter: -13%; Rango complex inh: -3.5%

Results for O=C(CS(=O)(=O)Cc1ccccc1)Nc1ccc2c(c1)OCO2 ?
Rango release inh: 46%; GLA inh pH 4.5: 3; miR-21 reporter: -24%; Rango complex inh: 1.5%

How did O=C(CC(Nc1cccc(Cl)c1Cl)C(=O)OCC(=O)c1cccs1)c1ccccc1 (centres undefined) do in these assays?
Rango release inh: 4%; GLA inh pH 4.5: 1; miR-21 reporter: -6%; Rango complex inh: -0.2%

What do the screens show for `CC1CCC(NC(=O)c2ccc3nc[nH]c3c2)CC1` (centres undefined)?
Rango release inh: -6%; GLA inh pH 4.5: 0; miR-21 reporter: -44%; Rango complex inh: -2.7%

What do the screens show for `O=C(NCc1ccccc1)C1CCN(C(=O)Cc2ccccc2)CC1`?
Rango release inh: -6%; miR-21 reporter: 1%; Rango complex inh: -3.7%

What do the screens show for `Cc1ccccc1OCc1nnc(SCC(=O)N2c3ccccc3Sc3ccc(Cl)cc32)o1`?
Rango release inh: -5%; GLA inh pH 4.5: 5; miR-21 reporter: 3%; Rango complex inh: -0.4%

How did O=C(Cc1ccc(Cl)cc1Cl)NCc1cccnc1 do in these assays?
Rango release inh: -10%; miR-21 reporter: -9%; Rango complex inh: 1.7%

What do the screens show for `COc1ccccc1C(=O)NCCC(=O)N1CC(C)OC(C)C1` (centres undefined)?
Rango release inh: -17%; Rango complex inh: -0.2%

What do the screens show for `CCOC(=O)NC(CC(=O)O)c1ccc(OC)c(OC)c1` (centres undefined)?
Rango release inh: -28%; GLA inh pH 4.5: -1; miR-21 reporter: -1%; Rango complex inh: -4.6%

What do the screens show for `Cc1ccc(Cl)cc1N1CCN(S(=O)(=O)c2c(C)noc2C)CC1`?
Rango release inh: -2%; miR-21 reporter: 4%; Rango complex inh: 4.3%

Results for COCCn1c(-c2ccco2)nc2nc3ccccc3nc21 ?
Rango release inh: inconclusive; GLA inh pH 4.5: inconclusive; miR-21 reporter: -14%; Rango complex inh: inconclusive

What do the screens show for `CCCn1nc(NS(=O)(=O)c2ccccc2)c2cc3ccccc3nc21`?
Rango release inh: -3%; GLA inh pH 4.5: 5; miR-21 reporter: -4%; Rango complex inh: 1.7%

What do the screens show for `Cc1sc2ncnc(N3CCC(C(=O)NNC(=O)c4ccc(Cl)cc4)CC3)c2c1C`?
Rango release inh: 0%; Rango complex inh: 0.3%

What do the screens show for `CC(C)n1c(=S)[nH]c2ccccc21`?
Rango release inh: -15%; GLA inh pH 4.5: -1; miR-21 reporter: 0%; Rango complex inh: -3.2%

What do the screens show for `CC1(C)Cc2ccccc2C(=C(C#N)C#N)N1`?
Rango release inh: -1%; GLA inh pH 4.5: -14; miR-21 reporter: -25%; Rango complex inh: -4.5%

What do the screens show for `O=C(Nc1nccs1)c1ccc(Cl)nc1`?
Rango release inh: 1%; miR-21 reporter: -20%; Rango complex inh: -1.0%

Results for COc1cc(NC(=O)c2cc3cccc(OC)c3o2)cc(C(=O)Nc2cccc(C(F)(F)F)c2)c1 ?
Rango release inh: -2%; GLA inh pH 4.5: -7; miR-21 reporter: inconclusive; Rango complex inh: 2.6%

What do the screens show for `Cc1onc(-c2ccccc2)c1C(=O)NNC(=O)c1ccccc1Br`?
Rango release inh: 8%; Rango complex inh: 3.3%

Results for COc1cc(-c2nnc(COC(=O)CSc3cc(C)c4ccccc4n3)o2)cc(OC)c1OC ?
Rango release inh: 28%; GLA inh pH 4.5: -9; miR-21 reporter: -1%; Rango complex inh: 4.0%

How did O=C1OC(c2ccc3ccccc3c2O)(c2ccc3ccccc3c2O)c2ccccc21 do in these assays?
Rango release inh: -7%; Rango complex inh: 1.1%

How did COc1ccccc1OCc1nnc(SCC(=O)N2CCCCC2)n1-c1ccccc1 do in these assays?
Rango release inh: -13%; GLA inh pH 4.5: -2; miR-21 reporter: -13%; Rango complex inh: -4.3%

What do the screens show for `COC(=O)c1cc(S(=O)(=O)NCc2ccccc2OC)cn1C`?
Rango release inh: -1%; miR-21 reporter: 4%; Rango complex inh: 7.5%

Results for Cn1cc(CN2C[C@]3(C)C[C@H]2CC(C)(C)C3)c(-c2ccc3c(c2)OCCO3)n1 ?
Rango release inh: -3%; GLA inh pH 4.5: -15; miR-21 reporter: -13%; Rango complex inh: 5.4%

Results for CCCCNC(=O)[C@H](Cc1c[nH]c2ccccc12)NC(=O)c1ccccc1Cl ?
Rango release inh: 16%; GLA inh pH 4.5: 0; miR-21 reporter: 4%; Rango complex inh: -0.1%

Results for Cc1ccccc1OCC(=O)Nc1ccc(N2CCN(C(=O)c3ccco3)CC2)cc1 ?
Rango release inh: 4%; miR-21 reporter: 18%; Rango complex inh: 3.4%

Results for COC(=O)c1sccc1-n1cc(C#N)c(=O)n(C)c1=O ?
Rango release inh: 1%; GLA inh pH 4.5: -12; miR-21 reporter: -10%; Rango complex inh: -0.9%

Results for O=C(CCn1c(=S)[nH]c2ccccc2c1=O)NCC1CCCO1 (centres undefined) ?
Rango release inh: 1%; GLA inh pH 4.5: -4; miR-21 reporter: -7%; Rango complex inh: -1.8%

Of the compounds above, these contain an NH in an aromatic ring:
Results for O=C(CNC(=O)c1cccs1)N=Nc1c(O)[nH]c2ccc([N+](=O)[O-])cc12 ?
Rango release inh: 2%; miR-21 reporter: -4%; Rango complex inh: 0.3%

How did CCOC(=O)[C@H]1[C@H]2COc3ccc(Br)cc3[C@H]2N2C(=O)CN(CCc3c[nH]c4ccccc34)C(=O)[C@@]12C do in these assays?
Rango release inh: -1%; Rango complex inh: 0.0%

What do the screens show for `CC1CCC(NC(=O)c2ccc3nc[nH]c3c2)CC1` (centres undefined)?
Rango release inh: -6%; GLA inh pH 4.5: 0; miR-21 reporter: -44%; Rango complex inh: -2.7%

What do the screens show for `CC(C)n1c(=S)[nH]c2ccccc21`?
Rango release inh: -15%; GLA inh pH 4.5: -1; miR-21 reporter: 0%; Rango complex inh: -3.2%

Results for CCCCNC(=O)[C@H](Cc1c[nH]c2ccccc12)NC(=O)c1ccccc1Cl ?
Rango release inh: 16%; GLA inh pH 4.5: 0; miR-21 reporter: 4%; Rango complex inh: -0.1%

Results for O=C(CCn1c(=S)[nH]c2ccccc2c1=O)NCC1CCCO1 (centres undefined) ?
Rango release inh: 1%; GLA inh pH 4.5: -4; miR-21 reporter: -7%; Rango complex inh: -1.8%

More entries follow.
Results for CCOC(=O)c1cc(CC)sc1NC(=O)c1ccc(N2CCOCC2)c([N+](=O)[O-])c1 ?
Rango release inh: 2%; GLA inh pH 4.5: 6; miR-21 reporter: 0%; Rango complex inh: -0.9%

How did O=C(c1n[nH]c2c1CCCC2)n1ccnc1 do in these assays?
GLA inh pH 4.5: 2; miR-21 reporter: -3%

Results for Cn1c(=O)c2[nH]c(NN=Cc3ccc(F)cc3)nc2n(C)c1=O ?
Rango release inh: 23%; Rango complex inh: -0.5%

What do the screens show for `COc1ccccc1CNC(=O)COC(=O)CCN=C1NS(=O)(=O)c2ccccc21`?
Rango release inh: 0%; Rango complex inh: -2.6%

How did COc1ccc(C)cc1S(=O)(=O)N1CCN(C(=O)c2ncoc2-c2ccccc2F)CC1 do in these assays?
Rango release inh: -3%; miR-21 reporter: -2%; Rango complex inh: -1.8%

Results for CC(C)C(=O)NCc1cc(-c2ccc(Cl)cc2)no1 ?
Rango release inh: -10%; GLA inh pH 4.5: -5; miR-21 reporter: -22%; Rango complex inh: -1.2%

Results for CCOC(=O)c1cnc2ccc(OC)cc2c1NCCc1ccc(OC)c(OC)c1 ?
Rango release inh: 20%; GLA inh pH 4.5: -2; miR-21 reporter: inconclusive; Rango complex inh: 2.1%

What do the screens show for `CN(C)CCC(O)(c1ccccc1)c1ccccc1Cl` (centres undefined)?
Rango release inh: -16%; Rango complex inh: 0.2%

What do the screens show for `COc1cccc(C2=CC(=O)CC(c3ccco3)C2)c1` (centres undefined)?
Rango release inh: 12%; Rango complex inh: 2.6%

Results for Cc1c(NC(=O)c2ccc(N(Cc3ccccc3)S(C)(=O)=O)cc2)c(=O)n(-c2ccccc2)n1C ?
Rango release inh: -3%; GLA inh pH 4.5: 4; miR-21 reporter: -3%; Rango complex inh: 8.4%

What do the screens show for `COC(=O)c1ccc(NC(=O)CSc2nc(=O)cc(N)n2-c2ccccc2)cc1`?
Rango release inh: 24%; GLA inh pH 4.5: 9; miR-21 reporter: -6%; Rango complex inh: 0.4%

Results for COc1ccc(CCNCc2csc3nc4ccccc4n23)cc1OC ?
Rango release inh: -9%; GLA inh pH 4.5: 0; miR-21 reporter: 16%; Rango complex inh: inconclusive

How did OCCNCc1cccc(-c2ccccc2)c1O do in these assays?
Rango release inh: -10%; Rango complex inh: inconclusive

What do the screens show for `O=C(NCc1ccc2c(c1)OCO2)c1ccc(C2SCC(=O)N2Cc2ccco2)cc1` (centres undefined)?
Rango release inh: -3%; GLA inh pH 4.5: -2; miR-21 reporter: -8%; Rango complex inh: -2.1%

How did O=C1C2CC(O)CN2C(=S)N1Cc1ccccc1 (centres undefined) do in these assays?
Rango release inh: 13%; GLA inh pH 4.5: 3; miR-21 reporter: -1%; Rango complex inh: -3.3%

What do the screens show for `CCN(CC(=O)Nc1ccc2c(c1)OCCO2)C(=O)c1cc(S(=O)(=O)N2CCOCC2)ccc1F`?
Rango release inh: 23%; Rango complex inh: -1.6%

How did O=C(c1ccc(NC2=NC3CS(=O)(=O)CC3S2)cc1)N1CCN(c2ccc(F)cc2)CC1 (centres undefined) do in these assays?
Rango release inh: 9%; miR-21 reporter: -7%; Rango complex inh: -2.4%

Source: PubChem BioAssay (National Center for Advancing Translational Sciences (NCATS))

Only part of the results is shown. The share of hits here may be higher or lower than overall.
